High-throughput results as filed in PubChem BioAssay.
KCNQ2 inh: KCNQ2 potassium channel inhibitors, primary screen, cell-based, CHO-K1, FluxOR thallium flux, B-score (AID 2156); O88943; 20 min; active compounds read low; only compounds with negative scores are shown here; some inactives read as strong as hits; B-score at 10 µM; 1.1% of 310,000 active;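 active means fluorescence ratio B-score at most minus 3 library SDs, with starting brightness B-score within 2 library SDs, cut at about -5.5 in these data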
Target sequence (O88943 whole entry, looked up): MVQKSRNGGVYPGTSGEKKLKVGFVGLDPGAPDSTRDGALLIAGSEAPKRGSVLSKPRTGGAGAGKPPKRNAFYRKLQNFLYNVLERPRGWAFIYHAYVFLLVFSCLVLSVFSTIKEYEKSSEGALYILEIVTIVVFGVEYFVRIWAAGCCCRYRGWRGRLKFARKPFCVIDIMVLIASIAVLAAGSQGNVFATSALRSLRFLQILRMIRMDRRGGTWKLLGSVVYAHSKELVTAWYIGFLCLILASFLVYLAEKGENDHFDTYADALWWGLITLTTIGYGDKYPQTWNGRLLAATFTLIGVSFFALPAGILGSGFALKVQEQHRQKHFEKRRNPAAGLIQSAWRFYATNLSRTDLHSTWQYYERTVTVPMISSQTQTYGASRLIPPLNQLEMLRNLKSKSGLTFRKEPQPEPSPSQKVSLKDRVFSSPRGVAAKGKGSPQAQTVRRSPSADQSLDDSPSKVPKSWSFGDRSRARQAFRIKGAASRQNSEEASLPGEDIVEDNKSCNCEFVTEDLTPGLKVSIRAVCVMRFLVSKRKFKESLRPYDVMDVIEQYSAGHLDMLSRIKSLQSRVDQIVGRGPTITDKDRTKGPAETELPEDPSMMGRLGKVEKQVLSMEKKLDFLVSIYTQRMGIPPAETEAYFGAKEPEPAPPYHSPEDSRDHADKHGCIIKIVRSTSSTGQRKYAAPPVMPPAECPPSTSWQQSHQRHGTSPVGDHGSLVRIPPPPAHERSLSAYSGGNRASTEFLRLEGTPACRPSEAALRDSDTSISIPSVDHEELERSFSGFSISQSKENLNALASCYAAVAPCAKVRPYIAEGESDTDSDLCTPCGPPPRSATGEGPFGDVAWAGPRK
KCNQ2 inh baseline: recorded beside KCNQ2 inh, whose call it bears; B-score; measured here: initial fluorescence intensity artifact check;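 brightness before thallium and not channel activity; 0 = typical well and far values either way flag optical interference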
The depositor's hits bear a star; i = inactive. The list is partial. The share of hits here may be higher or lower than overall.

SMILES	KCNQ2 inh	KCNQ2 inh baseline
NS(=O)(=O)c1ccc(CCNC(=S)Nc2ccccc2)cc1	i	-0.3
Cn1c2ccccc2c(=O)c2cc(C#Cc3ccsc3)ccc21	i	0.58
CCOC(=O)C1=C(C)NC2=C(C(=O)CC(C)(C)C2)C1c1ccc(N(C)C)cc1 (stereo not given)	i	-1.9
CN(c1ccccc1)S(=O)(=O)c1cccc(C(=O)Nc2ccc3c(c2)CCC3)c1	i	0.34
C/C(=N\OC(=O)c1c(-c2c(F)cccc2Cl)noc1C)c1nccs1	i	-1.9
CC(=O)N(c1cccc(C(F)(F)F)c1)c1nc(/C=C/C(=O)O)cs1	i	1.4
CSC1=NCCN1C(=O)c1ccc2ccccc2c1	i	0.5
O=C(NC1CCCCCCC1)c1ccc2c(c1)OCO2	i	0.45
N#Cc1ccc(S(=O)(=O)NCC(=O)OCC(=O)NCCc2ccccc2)cc1	i	-0.17
Cc1c(C(=O)c2ccc(F)cc2F)c2ccccn2c1CCC#N	i	-0.12
Cc1ccnc(NC(=O)CCC(=O)N(CC(=O)NCc2ccc(F)cc2)CC2CCCO2)c1 (stereo not given)	i	-0.3
CNC(=O)CCSSCCC(=O)NC	i	-1.8
CC(C)Cn1c(SCC(=O)NCCCN2CCCC2=O)nc2ccccc21	i	1.6
O=C1N(CC(=O)N2CCc3ccccc32)CCN1Cc1ccc(Cl)cc1	i	0.81
O=C(/C=C/c1ccco1)Nc1cccnc1Cl	i	0.82
COc1cc2c(cc1NC(=O)CSc1nnc(Cc3cccs3)n1Cc1ccco1)oc1ccccc12	i	-0.18
Cc1c(Cl)cccc1NC(=O)CSCC(N)=O	i	2.2
Cc1nn(Cc2ccc(C(=O)N3c4ccc(F)cc4CCC3C)o2)c(C)c1Br (stereo not given)	-7.6*	-2.6*
CCS(=O)(=O)c1nc(S(=O)(=O)c2ccc(Cl)cc2)c(N2CCN(CCO)CC2)s1	i	-0.35
CCOC(=O)c1ccc(Oc2cn[nH]c2-c2ccc(OCC(=O)NN)cc2O)cc1	i	0.03
C[C@@H]1CN(C(=O)c2cc(COc3cccc(C(F)(F)F)c3)on2)C[C@H](C)O1	i	-1.2
O=C(COC(=O)c1ccccc1OC(F)F)Nc1ccc2[nH]c(=O)[nH]c2c1	i	0.33
O=C(Cn1c(NCCO)nc2ccccc21)c1ccc(F)cc1	i	0.78
Cc1cc(C(=O)N2CCN(c3ncccn3)CC2)sc1-c1ccccc1	i	0.94
Cc1ccc(NC(=O)CC2C(=O)N(Cc3ccccc3)C(=S)N2NC(=O)c2ccccc2)c(C)c1 (stereo not given)	i	1.5
COc1cc(NS(=O)(=O)c2ccc(OC)c(C)c2C)c(OC)cc1Cl	i	-0.14
CC(=O)/C=C1/C(=O)Nc2ccccc21	i	-0.02
CCCC1=[N+](CC(=O)c2ccccc2)CCn2c(C)ccc21	i	-0.13
CC(=O)Nc1ccc(NC(=O)Cc2sc(C)nc2-c2ccc(C)cc2)cc1	i	-0.03
Cc1c(C)n(C)c2ccc(C(=O)NCCCN3CCN(C)CC3)cc12	i	0.68
CCOC(=O)C(NC(C)=O)(OCc1ccccc1)C(F)(F)F (stereo not given)	i	-0.29
Cc1cc(C)nc(NN2C(=O)/C(=C/c3ccc(O)cc3)SC2=S)n1	i	1.5
CSCCC(NC(=O)COc1ccccc1)C(=O)N(C)CC(=O)Nc1c(C)cccc1C (stereo not given)	i	-0.49
COc1ccc(C(=O)NNC(=S)NC(=O)c2cccs2)cc1	i	0.26
C=C1C(C(=O)Nc2ccc(F)cc2)C1C(=O)Nc1ccc(F)cc1 (stereo not given)	i	1.8
CCOc1cc(/C=C(\C#N)C(=O)Nc2ccc(S(N)(=O)=O)cc2)ccc1OCCN1CCOCC1	i	-0.82

4 structures from above, sorted by SMILES length, lowest first:
SMILES	KCNQ2 inh	KCNQ2 inh baseline
CCCC1=[N+](CC(=O)c2ccccc2)CCn2c(C)ccc21	i	-0.13
Cc1cc(C)nc(NN2C(=O)/C(=C/c3ccc(O)cc3)SC2=S)n1	i	1.5
CC(=O)Nc1ccc(NC(=O)Cc2sc(C)nc2-c2ccc(C)cc2)cc1	i	-0.03
Cc1ccc(NC(=O)CC2C(=O)N(Cc3ccccc3)C(=S)N2NC(=O)c2ccccc2)c(C)c1 (stereo not given)	i	1.5

Next part:
SMILES	KCNQ2 inh	KCNQ2 inh baseline
CCOC(=O)Cc1csc(N)n1	i	1.2
COCCCNS(=O)(=O)c1ccc2[nH]c(=O)[nH]c2c1	i	0.1
COc1ccccc1CNC(=O)CCSCc1cccc(Cl)c1	i	2.1
Cn1nnnc1SCCNCc1ccccc1OCc1ccccc1Cl	i	-0.01
COc1ccc(C(CNC(=O)c2ccc(S(=O)(=O)N3CCOCC3)cc2)N2CCCCC2)cc1 (stereo not given)	i	-1.8
CC(C)=N/N=C1\NC(=O)C(C)S1 (stereo not given)	i	-0.23
Cc1ccc(-c2cc(C(=O)NCc3ccco3)c3ccccc3n2)o1	i	1.1
CN(CC(=O)Nc1cccc(F)c1)C(=O)c1ccc(C2SCCS2)cc1	i	1.7
Cc1cccc(CSCCNC(=O)CN(c2cc(C)cc(C)c2)S(C)(=O)=O)c1	i	-0.95
COc1ccc(NC(=O)CC2(CC(=O)O)CCCC2)cc1	i	-0.74
Cc1cc(NC(=O)C(=O)c2c(C)[nH]c3ccccc23)no1	i	-0.99
COc1cc(NS(=O)(=O)c2ccc(N)cc2)ncn1	i	-0.63
CCOn1c(-n2nc(C)cc2C)nc2ccccc2c1=O	i	-1.6
O=C(O)C1CCCN1S(=O)(=O)c1ccc(F)cc1 (stereo not given)	i	0.7
C(=N/Nc1nc(-c2ccccc2)cc(-c2ccccc2)n1)/c1cccnc1	i	-1
Cc1cc(C)nc(NC(=O)Cc2ccc([N+](=O)[O-])cc2)c1	i	-1.7
CC/C(O)=C1\C(=O)CC(C)(C)CC1=Nc1ccccc1C	i	1.7
CC(Sc1nc2scc(-c3ccccc3)c2c(=O)[nH]1)C(=O)NC(N)=O (stereo not given)	i	0.72
CC1(C)Cc2cccc(Oc3cc(NN4CCCCC4)c([N+](=O)[O-])cc3[N+](=O)[O-])c2O1	i	-1.2
O=C(NC1CCCc2ccccc21)c1cc(F)cc(F)c1 (stereo not given)	i	0.05
CN1CCc2c(sc(/N=C/c3cccs3)c2C(N)=O)C1	i	2.9
O=C(COC(=O)/C=C/c1cn(-c2ccccc2)nc1-c1cccnc1)Nc1ccc(Cl)cc1Cl	i	-0.27
COc1ccc(/C=C/C(=O)NC(=S)NNC(=O)c2c(-c3ccccc3)noc2C)cc1	i	1.7
CNC(=O)COc1coc(CN2CCN(c3cccc(Cl)c3)CC2)cc1=O	i	-0.12
O=C(CSc1nnc(CNc2ccccc2)o1)N1CCc2ccccc21	i	-0.58
CCOC(=O)/C=C1\CN(Cc2ccc(OC)cc2)S(=O)(=O)c2ccccc21	i	0.61
Cn1c(SC/C=C/c2ccccc2)nnc1-c1cccs1	i	-0.22
COC(=O)c1ccc(N=NN2CCCCC2)cc1	i	0.04
COC(=O)c1ccc(OCC(=O)c2ccccc2OC)cc1	i	0.93
CCOc1ccc(NC(=S)N(CCc2ccncc2)C(C)C)cc1	i	0.06
CCOC(=O)Cc1ccc(NC(=O)c2cccc([N+](=O)[O-])c2)cc1	i	0.16
COc1ccc(C(=O)c2cnc3cc4c(cc3c2C)OCO4)cc1	i	-0.56
CN(Cc1nccn1C)C(=O)CC1C(=O)NCCN1Cc1ccc(F)cc1Cl (stereo not given)	i	1.2
COC(=O)C(=C/C=C/c1ccco1)C(=O)OC	i	0.24
COc1ccc(CCNS(=O)(=O)c2ccc(OC)c(OC)c2)cc1OC	i	3.8
O=C(Nc1ccc(Cl)cc1)OCCn1nnnc1C(c1ccccc1)N1CCOCC1 (stereo not given)	i	-0.92
CCOc1cccc(-n2nnnc2-c2ccc(OC)cc2)c1	i	-2.1
CCOc1ccccc1NS(=O)(=O)c1ccc(-n2cccn2)cc1	i	1.5
COc1ccc(CCNC(=O)Oc2ccccc2)cc1OC	i	-1.1
O=C(NCC1CCCN1S(=O)(=O)c1ccccc1)c1cccc(Cl)c1 (stereo not given)	i	1.2
Cc1cccc(OCC(=O)N2CCN(C(=O)COc3ccc(Cl)cc3)CC2)c1	i	2.9
CC1=CC2=NC(=O)/C(=C\c3cc(C)n(-c4ccccc4)c3C)C(=N)N2O1	i	0.68
CCOC(=O)Cn1c(Br)nc2c1c(=O)[nH]c(=O)n2C	i	-0.02
CN1C(=O)c2ccc(NC(=O)c3c(C(=O)O)cccc3[N+](=O)[O-])cc2C1=O	i	-0.09
COc1ccc(Nc2nc(Nc3ccc(OC)cc3)nc(SC3=NCCS3)n2)cc1	i	1.4
COc1ccc2oc(C(=O)OCC(=O)NC(=O)NC(C)C)c(C)c2c1	i	-0.68
O=C(O)Cn1ncc2c1-c1ccoc1CC2	i	1.1
Cn1c(=O)[nH]c(=O)c2c1nc(Br)n2CCCSc1nc2ccccc2o1	i	0.02
CCCCOc1ccc(/C=C/C(=O)OCC(=O)c2c(N)n(C)c(=O)n(C)c2=O)cc1OCC	i	0.1
O=c1ncn(-c2ccc(F)cc2)c2ncccc12	i	1.2
COc1ccc(S(=O)(=O)NC2CC(C)(C)NC(C)(C)C2)cc1C(C)C	i	0.31
CCN(CC)CCN1C(=O)c2ccccc2NC1c1ccc(N(C)C)cc1 (stereo not given)	i	0.67
O=C(O)c1cc2ccc3ccccc3c2oc1=O	i	0.49
c1ccc2c(Nc3nnc(-c4ccncc4)s3)cccc2c1	i	-0.06
COC(=O)Nc1nnc(COc2ccccc2)s1	i	-0.76
COC(=O)Cn1c(N)[n+](Cc2ccccc2)c2ccccc21	i	-0.38
Cc1noc(C)c1COc1cccc(C(=O)OC(C)C(=O)Nc2ccc3c(c2)OCO3)c1 (stereo not given)	i	-1.6
CC(C)(C)c1ccc(C2(C)NC(=O)N(CC(=O)c3ccc[nH]3)C2=O)cc1 (stereo not given)	i	0.29
CCN(c1ccccc1)S(=O)(=O)c1ccc(OC)c(NC(=O)C2CC(=O)N(Cc3ccccc3)C2)c1 (stereo not given)	i	0.19
CC(=O)C(Sc1ccc2nnc(-c3ccc(F)cc3)n2n1)C(C)=O	i	-1.5

The list goes on, overlapping the part above by 6 compounds.
SMILES	KCNQ2 inh	KCNQ2 inh baseline
COC(=O)Nc1nnc(COc2ccccc2)s1	i	-0.76
COC(=O)Cn1c(N)[n+](Cc2ccccc2)c2ccccc21	i	-0.38
Cc1noc(C)c1COc1cccc(C(=O)OC(C)C(=O)Nc2ccc3c(c2)OCO3)c1 (stereo not given)	i	-1.6
CC(C)(C)c1ccc(C2(C)NC(=O)N(CC(=O)c3ccc[nH]3)C2=O)cc1 (stereo not given)	i	0.29
CCN(c1ccccc1)S(=O)(=O)c1ccc(OC)c(NC(=O)C2CC(=O)N(Cc3ccccc3)C2)c1 (stereo not given)	i	0.19
CC(=O)C(Sc1ccc2nnc(-c3ccc(F)cc3)n2n1)C(C)=O	i	-1.5
O=C(CN1CCN(C(=O)C2CCCO2)CC1)Nc1c(Cl)cccc1Cl (stereo not given)	i	0.04
O=C(NNC(=S)NCc1ccccc1)c1cccc([N+](=O)[O-])c1	i	-0.41
O=C(COC(=O)c1ccc([N+](=O)[O-])s1)NCc1ccc(F)cc1	i	0.62
COC(=O)c1cc2c(-c3ccccc3)cc3ccccn3c-2c1C(=O)OC	i	-1.1
COc1ccc(CNC(=O)c2cccc3c2C(=O)N(Cc2cccnc2)C3)cc1	i	1.7
CCOC(=O)CNC(=O)CSc1nnc(-c2ccc(OC)cc2)n1CC	i	-0.64
COC(=O)CCCCCCCCC(O)CN(C)C (stereo not given)	i	-2
Cc1cc(N)n(-c2ccccc2C)n1	i	1.2
Cc1csc2c(N3CCN(C(=O)c4ccc(C(C)(C)C)cc4)CC3)ncnc12	i	-1.6
C/C(=N\NC(=O)c1cccs1)c1c(O)cc(C)oc1=O	i	-2.6
Cc1nc2ccc(S(=O)(=O)NC(C(=O)N3CCC(C)CC3)C(C)C)cc2s1 (stereo not given)	i	-0.93
O=C(c1ccccc1)C1CCN(C(=O)c2cccs2)CC1	i	0.01
CO/N=C/C(=N\Nc1ccccc1)C(=O)c1ccccc1	i	-0.91
CCOC(=O)Cc1csc(NC(=O)c2c(O)c3ccccc3n(CC(C)C)c2=O)n1	i	-0.47
C/C(=N\NC(=O)c1ccccc1N)c1ccc(NC(=O)Cc2ccccc2)cc1	i	-0.46
Cc1ccc(-c2cc(C(=O)Nc3cccnc3)c3ccccc3n2)s1	-7.9*	-1.1*
COc1cc2c(cc1OC)[C@H](C)N(C(=S)Nc1ccc(F)cc1)CC2	i	0.01
C=CCNC(=O)c1onc(CSc2ccccc2C)c1C(=O)O	i	-0.18
Cc1ccc(C(=O)Nc2nc(C)c(C(=O)N(C)C)s2)o1	i	0.91
O=S1(=O)C[C@@H]2N=C(N/N=C/c3ccccc3)S[C@@H]2C1	i	2
CCCCNC(=S)NNC(=O)c1nn(C)c(C)c1Cl	i	-0.31
Cc1ccc(N2C(=O)CN(Cc3cccs3)C2=S)cc1C	i	2.4
O=C(O)c1ccc(N2C(=O)C3ON(c4ccccc4)C(c4ccccc4F)C3C2=O)cc1 (stereo not given)	i	-0.85
O=C(Cn1nnc(-c2ccncc2)n1)NCCc1ccccc1	i	-0.28
CCn1nc(C)c(NC(=O)/C=C/c2ccc(OC)c(COc3ccc(Cl)cc3Br)c2)c1C	i	-0.48
Cc1cc(SCc2ccccc2Cl)nc(=O)[nH]1	i	-1.3
COc1ccc(OCc2cc(C(=O)N3CCN(CC(=O)N(C)C)CC3)no2)c(Cl)c1	i	1.1
COc1ccc(Cc2nc3ccc(C(=O)N(C)CCCN4CCOCC4)cc3o2)cc1	i	-2.2
COc1ccc2[nH]c(C)c(CCN(Cc3cccs3)C(=S)Nc3ccc(F)cc3)c2c1	i	0.4
c1ccc(Oc2nc(Oc3ccccc3)nc(N3CCOCC3)n2)cc1	i	-0.5

An excerpt from above in order of the KCNQ2 inh baseline value, high to low.
smiles	KCNQ2 inh baseline
COc1ccc(OCc2cc(C(=O)N3CCN(CC(=O)N(C)C)CC3)no2)c(Cl)c1	1.1
COc1ccc2[nH]c(C)c(CCN(Cc3cccs3)C(=S)Nc3ccc(F)cc3)c2c1	0.4
Cc1cc(SCc2ccccc2Cl)nc(=O)[nH]1	-1.3
COc1ccc(Cc2nc3ccc(C(=O)N(C)CCCN4CCOCC4)cc3o2)cc1	-2.2
